Source: PubChem (National Center for Advancing Translational Sciences (NCATS))
nsP2pro primary = inhibitors of chikungunya virus nsP2 protease; Q8JUX6; hit rate 1.1% among 31,000; Potency, µM (doses to about 24.9 µM), inactives show at the highest dose activity change, negative = inhibition, usual class: inhibitors; FRET peptide cleavage, nsP2pro, fluorescence 1 h; active means well fitted inhibition curve with a large enough effect; inconclusive means small, poorly fitted or top-dose-only effect; inactive means no such curve, though single readings can be large or run the other way; also: nearly all actives have a fitted effect of over 60% in size; a reference inhibitor and vehicle were the controls
Target sequence (Q8JUX6 whole entry, looked up): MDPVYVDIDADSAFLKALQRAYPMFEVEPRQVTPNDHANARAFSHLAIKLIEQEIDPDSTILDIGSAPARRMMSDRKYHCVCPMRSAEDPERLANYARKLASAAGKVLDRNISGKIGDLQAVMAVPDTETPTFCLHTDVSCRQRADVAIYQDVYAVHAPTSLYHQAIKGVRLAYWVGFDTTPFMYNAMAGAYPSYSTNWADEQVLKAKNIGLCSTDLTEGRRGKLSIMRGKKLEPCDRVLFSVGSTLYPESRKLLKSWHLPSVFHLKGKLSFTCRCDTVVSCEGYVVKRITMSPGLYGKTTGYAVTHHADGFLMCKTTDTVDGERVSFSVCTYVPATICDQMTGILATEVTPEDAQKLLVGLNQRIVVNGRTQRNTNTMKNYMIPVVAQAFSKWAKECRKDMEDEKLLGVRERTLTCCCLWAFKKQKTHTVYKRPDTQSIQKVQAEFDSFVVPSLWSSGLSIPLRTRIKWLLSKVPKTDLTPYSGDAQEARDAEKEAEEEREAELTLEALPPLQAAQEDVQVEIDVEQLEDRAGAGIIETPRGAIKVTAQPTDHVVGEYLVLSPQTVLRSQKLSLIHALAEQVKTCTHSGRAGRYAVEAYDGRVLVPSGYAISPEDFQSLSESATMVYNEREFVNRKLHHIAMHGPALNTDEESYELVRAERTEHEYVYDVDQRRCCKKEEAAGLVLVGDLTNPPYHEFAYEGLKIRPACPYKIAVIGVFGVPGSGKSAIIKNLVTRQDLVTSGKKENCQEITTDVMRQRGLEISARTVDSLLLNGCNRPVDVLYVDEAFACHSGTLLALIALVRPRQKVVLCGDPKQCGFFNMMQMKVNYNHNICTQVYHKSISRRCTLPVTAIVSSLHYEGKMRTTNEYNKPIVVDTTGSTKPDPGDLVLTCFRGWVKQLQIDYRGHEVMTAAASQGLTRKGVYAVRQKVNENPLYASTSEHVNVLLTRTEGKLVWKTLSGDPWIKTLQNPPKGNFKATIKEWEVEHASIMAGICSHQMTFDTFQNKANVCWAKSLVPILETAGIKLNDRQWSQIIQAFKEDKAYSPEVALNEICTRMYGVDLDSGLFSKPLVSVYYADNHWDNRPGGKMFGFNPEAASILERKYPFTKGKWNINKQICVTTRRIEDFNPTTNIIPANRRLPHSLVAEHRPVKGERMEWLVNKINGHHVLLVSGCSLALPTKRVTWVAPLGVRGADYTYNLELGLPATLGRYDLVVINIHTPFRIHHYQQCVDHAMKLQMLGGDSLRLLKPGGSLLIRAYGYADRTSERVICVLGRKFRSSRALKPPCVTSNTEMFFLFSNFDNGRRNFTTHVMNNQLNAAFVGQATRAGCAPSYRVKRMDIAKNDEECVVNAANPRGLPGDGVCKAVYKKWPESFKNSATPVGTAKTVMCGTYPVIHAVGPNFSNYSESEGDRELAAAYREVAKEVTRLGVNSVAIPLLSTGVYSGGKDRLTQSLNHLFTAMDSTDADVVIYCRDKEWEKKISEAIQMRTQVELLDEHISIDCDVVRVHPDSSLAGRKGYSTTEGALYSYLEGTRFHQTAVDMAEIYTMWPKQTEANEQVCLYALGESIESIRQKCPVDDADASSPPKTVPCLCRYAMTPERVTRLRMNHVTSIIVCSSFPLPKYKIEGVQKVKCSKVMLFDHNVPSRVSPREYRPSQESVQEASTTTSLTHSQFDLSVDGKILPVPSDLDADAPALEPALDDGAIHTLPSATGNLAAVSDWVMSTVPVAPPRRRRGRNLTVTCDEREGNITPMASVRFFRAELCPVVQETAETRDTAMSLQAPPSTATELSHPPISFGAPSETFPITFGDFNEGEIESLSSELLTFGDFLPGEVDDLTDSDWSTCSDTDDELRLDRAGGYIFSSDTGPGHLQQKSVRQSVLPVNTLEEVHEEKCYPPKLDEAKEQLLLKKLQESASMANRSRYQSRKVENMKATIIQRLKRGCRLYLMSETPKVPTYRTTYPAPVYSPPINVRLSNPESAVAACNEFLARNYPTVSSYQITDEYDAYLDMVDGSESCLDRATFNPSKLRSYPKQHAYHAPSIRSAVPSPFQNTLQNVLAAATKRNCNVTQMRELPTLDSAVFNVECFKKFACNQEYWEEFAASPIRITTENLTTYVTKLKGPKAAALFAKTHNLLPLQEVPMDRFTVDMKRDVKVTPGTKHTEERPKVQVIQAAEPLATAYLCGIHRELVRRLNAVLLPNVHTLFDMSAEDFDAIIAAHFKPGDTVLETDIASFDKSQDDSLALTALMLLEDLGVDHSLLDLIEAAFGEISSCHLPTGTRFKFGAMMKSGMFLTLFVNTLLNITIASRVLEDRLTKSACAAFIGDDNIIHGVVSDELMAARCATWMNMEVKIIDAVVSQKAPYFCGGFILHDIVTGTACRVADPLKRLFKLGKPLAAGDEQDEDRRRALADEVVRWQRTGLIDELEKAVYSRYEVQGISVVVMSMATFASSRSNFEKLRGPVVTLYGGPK
* = called active by the depositor; i = inactive; ? = inconclusive; & = joins results of further samples; [ ] = remark or other dose. % is scaled to controls: 0 for no effect and ±100 for the full control effect; potency is read from the fitted curve at half-maximal effect. Only part of the results is shown; count on the stated rates, not on these rows.

SMILES	nsP2pro primary
CCc1nn2c(=O)c(F)c(N3CCNCC3)nc2s1	-2%
CC1CCN(C(=O)c2cc3c(=O)n(C)c4cc(Cl)ccc4c3s2)CC1	-29%
Cc1cnc(-c2ccccc2C(C)C)nc1NCc1ccc(-c2ccc(F)nc2)cc1	i
CN1CCN(S(=O)(=O)c2ccc(F)cc2)CC12CCNC(=O)CC2 (configuration not stated)	-1%
O=[N+]([O-])c1cc(Cl)ccc1S(=O)(=O)N1CCN(Cc2ccccc2)CC1	-7%
Cc1ccc(C)c(NC(=O)[C@@H]2CCCN2S(=O)(=O)c2cccc3cccnc23)c1	0%
Cc1cnc(CNC(=O)c2c(=O)c3ccc(N4CCCN(C)CC4)nc3n3c2sc2ccccc23)cn1	36%[activator][5.1 µM]
CC(C)C1CCC(CO)=CC1/C=C(\CO)C(=O)OCC1(O)CCC(C(C)C)C2C=C(C(=O)O)COC(=O)C21 (configuration not stated)	-13%[10 µM]
COC(=O)[C@H](OC(C)=O)[C@H]1C(C)(C)C(=O)[C@H]2CC3=C4CC(=O)O[C@@H](c5ccoc5)[C@]4(C)CCC3[C@@]1(C)C2=O (some centres not stated)	-10%[10 µM]
S=P(c1ccccc1)(c1ccccc1)c1c(-c2ccccc2)[nH]c2ccccc12	i
COc1cc(O)c2c(c1)CCC[C@@H](O)[C@H](O)C(=O)/C=C\C[C@H](C)OC2=O	20%
CC(=O)N1CCN(C(=O)COC(=O)c2ccc([S+](C)(=O)[O-])c([N+](=O)[O-])c2)CC1	?
CCOc1ccc(C(=O)c2cn(CC(=O)Nc3ccc4c(c3)OCCO4)c3ccc(OC)cc3c2=O)cc1	-4%
Cc1onc(-c2c(Cl)cccc2Cl)c1C(=O)N[C@@H]1C(=O)N2[C@@H]1SC(C)(C)[C@@H]2C(=O)O	-8%&-6%
C=CCNC(=O)N[C@H]1C[C@@H](C(=O)N[C@@H](CCS(C)(=O)=O)C(N)=O)N(C(=O)CSC)C1	-7%
Cc1ccc2nc(SC(Cc3cc(Cl)ccc3Cl)C(=O)O)[nH]c2c1 (configuration not stated)	-10%
CC(C)(O/N=C(\C(=O)N[C@@H]1C(=O)N2C(C(=O)[O-])=C(C[n+]3ccccc3)CS[C@H]12)c1csc(N)n1)C(=O)O	18%[10 µM]
CCC(=O)OCc1cnc(C)c2oc(=O)c(C(=O)Nc3ccc(CC)cc3)cc12	-26%
COC(=O)C1(C)CCC(O)C2(C)c3c(O)cc(C(C)C)cc3C(O)C(OC(C)=O)C12 (configuration not stated)	?
CN(C)CCNC(=O)c1nc2nc(-c3ccccc3)c(-c3ccncc3)cc2n1C	4%[39.2 µM]
Cc1ccc(CNC(=O)CN2CCCN(Cc3ccc(F)cc3)S2(=O)=O)cc1	-15%
Clc1ccc2ncc(-c3cccc(NC4CCNCC4)n3)n2c1	i
COC(C(=O)Nc1ccnn1C1CCN(C(=O)CO)CC1)c1ccccc1 (configuration not stated)	-8%
Cc1cc(-c2cc3c(cn2)N(C)CCN(C)C3)ccn1	-3%[39.2 µM]
C=C1C(=O)OC2CC(C)=C(C(C)CCCO)C(O)C12 (configuration not stated)	200%[activator]
CNC(=O)[C@@H]1CN(C(=O)c2n[nH]c3ccccc23)C[C@H]1COC	i
CC1Cc2cc(S(=O)(=O)NCc3ccc(F)cc3)ccc2N1C(=O)C1CCC1 (configuration not stated)	-20%
CC(=O)OC[C@@]12[C@H](O)C[C@]3(C)C(=CCC4[C@@]5(C)CC[C@H](O[C@@H]6O[C@H](C(=O)O)[C@@H](O[C@@H]7O[C@H](CO)[C@@H](O)[C@H](O)[C@H]7O)[C@H](O)[C@H]6O[C@@H]6O[C@H](CO)[C@@H](O)[C@H](O)[C@H]6O)[C@](C)(CO)C5CC[C@]43C)[C@@H]1CC(C)(C)[C@@H](OC(C)=O)[C@@H]2O (some centres not stated)	?
O=c1cc(OCc2ccc(F)cc2)ccn1-c1ccc(OCCN2CCCC2)cc1	6%
O=S1(=O)NCC2(CCN(Cc3ccc(Cl)s3)CC2)Oc2ncccc21	-5%
Cc1cc(C)nc(NC(=S)N2CCN(c3ccc(Cl)nn3)CC2)c1	-9%
Cc1ccccc1-n1nc(CO)c(C(=O)NCc2cccnc2)n1	-16%
CCc1ccc(NC(=O)C2CCC(CNS(=O)(=O)c3cccs3)CC2)cc1 (configuration not stated)	-23%
CN(C)c1cccc(Oc2nnnn2[C@H]2CO[C@H]3[C@@H]2OC[C@@H]3NC(=O)NC2CCCCC2)c1	17%
O=C1CCCC2=C1C(c1[nH]ncc1Cl)N=C(Nc1ccn[nH]1)N2 (configuration not stated)	i
Cc1cnn(C(C)C(=O)N2CCC3(CCC(=O)N(C4CC4)C3)CC2)c1 (configuration not stated)	-2%
C=C(C)C1CC2(CO)C(=CC1=O)CCC(O)C2C (configuration not stated)	?
COc1ccc(CN(C(=O)c2cc3ccccc3oc2=O)C2CCS(=O)(=O)C2)cc1 (configuration not stated)	-12%
C[C@@H]1O[C@@H](O[C@H]2[C@@H]3C=CO[C@@H](O[C@@H]4O[C@H](CO)[C@@H](O)[C@H](O)[C@H]4O)[C@@H]3[C@@]3(CO)O[C@@H]23)[C@H](OC(=O)/C=C/c2ccc(O)cc2)[C@H](O)[C@H]1O	2%[10 µM]
CNC(=O)c1ccccc1Nc1nc(Nc2ccc(N3CCNCC3)cc2)ncc1Cl	60%[activator]
O=C(Nc1nn(Cc2ccccc2)c2cccc(N3CCOCC3)c12)C1CCC1	?
CS(=O)(=O)NC1CCN(Cc2cc(=O)c3cc(C(N)=O)ccc3[nH]2)CC1	-10%
CC(C)(C#N)c1cc(Cn2cncn2)cc(C(C)(C)C#N)c1	8%
CN(C)[S+](=O)([O-])c1ccc(-c2ccc(=O)n(CC(=O)NCCc3ccccc3)n2)cc1	-3%
NCCCC(=O)N1CCC2(CC1)CN(C(=O)c1ccc(Cl)cc1)CCO2	-18%
CCc1ccc(NC(=O)C2CCN(c3nn4cc(-c5ccc(OC)cc5)nc4s3)CC2)cc1	-13%
COC1C=C(C)C(O)(CO)C2(C)CCCC(C)(C)C12 (configuration not stated)	-7%
CC(O)/C=C/C1(O)C(C)C(O)C(O[C@@H]2O[C@H](CO)[C@@H](O)[C@H](O)[C@H]2O)CC1(C)C (some centres not stated)	9%[10 µM]
CSCCC(=O)N1CCCC1C(=O)Nc1cccc(-n2cccn2)c1 (configuration not stated)	-6%
COc1ccccc1-c1cccc(C(=O)N2CCN(C(=O)c3ccc(F)cc3)CC2)c1	-3%
CN(C)C(=O)c1nc2sccn2c1Br	-11%[39.2 µM]
CN(C)CCOc1cc(-c2cn[nH]c2)ccc1NC(=O)C1COc2ccccc2O1 (configuration not stated)	82%[activator]
COc1ccc(-c2c3c(=O)n(C)c(=O)n(C)c3c3c(-c4ccc(C)cc4)nc4ccccc4n23)cc1	-14%
Cn1c(=O)c2cc(C(=O)NCCCN3CCN(c4ccccc4F)CC3)sc2c2ccccc21	6%
CC(C)(C)CC(=O)NC1CC(=O)N(c2ccc3c(c2)OCCO3)C1 (configuration not stated)	-28%
Cc1ccc(NC(=O)c2nc(S(=O)(=O)Cc3cccc(C)c3)ncc2Cl)cc1	23%
COc1cccc(C(=O)Nc2ccc(-c3nc4ccccc4s3)cc2Cl)c1	-14%
O=c1c2ccccc2nc(N2CCN(c3cccc(Cl)c3)CC2)n1-c1ccccc1	-9%
c1ccc(-c2ncc(CN3CCN(c4ncccn4)CC3)[nH]2)cc1	9%
Cc1cccc(OCc2nnc(-c3ccccc3)o2)c1	-15%

The listing continues:
SMILES	nsP2pro primary
O=C(c1cccn2cncc12)N1CCOCC1	i
CC(C)(C)c1ccc(C(=O)N2CCN(CCc3ccccn3)CC2)cc1	-10%
COc1ccccc1-c1cc(C(=O)N2CCCCC2C)no1 (configuration not stated)	-11%
O=C(c1ccco1)N1c2ccccc2CC1c1nnc(C2CCOCC2)o1 (configuration not stated)	-17%
Cc1ccc(NC(=O)CCC(=O)N2Cc3ccccc3Oc3ncccc32)cc1F	-13%
O=C(NCc1ccccc1F)C1CC(c2ccccc2)CN(C(=O)COc2ccccc2)C1 (configuration not stated)	-3%
N#C[C@@H](O[C@@H]1O[C@H](CO[C@@H]2O[C@H](CO)[C@@H](O)[C@H](O)[C@H]2O)[C@@H](O)[C@H](O)[C@H]1O)c1ccccc1	19%[10 µM]
Cc1ccc2nc(-c3c[nH]c4ccccc34)c(Nc3ccc(F)cc3)n2c1	4%
CC1(CO)CC(O)C2(C)CCC3(C)C(=CCC4C5(C=O)CCC(OC6OC(C(=O)O)C(O)C(O)C6OC6OC(C(=O)O)C(O)C(O)C6O)C(C)(C)C5CCC43C)C2C1 (configuration not stated)	29%[5.1 µM]
CCCS(=O)(=O)Nc1ccc(F)c(C(=O)c2c[nH]c3ncc(-c4ccc(Cl)cc4)cc23)c1F	0%&76%
O=C(Nc1ccc([S+](=O)([O-])Nc2nccs2)cc1)c1ncn[nH]1	i
COc1cccc(C(=O)Nc2ccccc2C(=O)OCc2cc(=O)n3c4c(sc3n2)CCCC4)c1	-16%
Cc1ccc(C)c(N2CCN(C(=O)c3ccc(-c4nc(COc5ccccc5)c(C)o4)cc3)CC2)c1	-13%
CC1(C)C(=O)N(c2ccc(C#N)c(C(F)(F)F)c2)C(=S)N1c1ccc(C(N)=O)c(F)c1	-8%
CCOCCCNC(=O)C(c1ccc(Cl)cc1)N(Cc1ccc2c(c1)OCO2)C(=O)c1ccc(NC(C)=O)cc1 (configuration not stated)	-8%
CCC(=O)N1CCc2cc(Br)cc(S(=O)(=O)Nc3ccccc3C(=O)OC)c21	-19%
C[C@H]1O[C@@H](O[C@H]2CC[C@@]3(C)[C@H](CC[C@@H]4[C@@H]3C[C@@H](O)[C@]3(C)[C@@H](C5=CC(=O)OC5)CC[C@]43O)C2)C[C@H](O)[C@@H]1O[C@H]1C[C@H](O)[C@H](O[C@H]2C[C@H](O)[C@H](O[C@@H]3O[C@H](CO)[C@@H](O)[C@H](O)[C@H]3O)[C@@H](C)O2)[C@@H](C)O1	3%
O=C(O)c1cc(-c2ccccc2)nc2ccccc12	-7%
COc1ccccc1CN[C@H]1C2CCN(CC2)[C@H]1C(c1ccccc1)c1ccccc1	12%
CCCc1cc(C)n(C)c(=O)c1CN(C)C(=O)c1cc(-c2ccc(N3CCN(C(C)C)CC3)nc2)cc2c1cnn2C(C)C	4%
Cc1cc2c(s1)c(C#N)c(C(=O)NCc1ccccc1F)n2C	-17%
Oc1cc(NCCc2cccnc2)cc2cccnc12	i
CCCn1c(-c2ccc(F)cc2)nc2c(NCCN(C(C)C)C(C)C)nc(C)nc21	i
Cc1ccc(-n2nc(C(=O)N3CCC(C)CC3)c(=O)n(C)c2=O)cc1	-4%

Filtered by structure, those above with a COOH group (7)
SMILES	nsP2pro primary
CC(C)C1CCC(CO)=CC1/C=C(\CO)C(=O)OCC1(O)CCC(C(C)C)C2C=C(C(=O)O)COC(=O)C21 (configuration not stated)	-13%[10 µM]
Cc1onc(-c2c(Cl)cccc2Cl)c1C(=O)N[C@@H]1C(=O)N2[C@@H]1SC(C)(C)[C@@H]2C(=O)O	-8%&-6%
Cc1ccc2nc(SC(Cc3cc(Cl)ccc3Cl)C(=O)O)[nH]c2c1 (configuration not stated)	-10%
CC(C)(O/N=C(\C(=O)N[C@@H]1C(=O)N2C(C(=O)[O-])=C(C[n+]3ccccc3)CS[C@H]12)c1csc(N)n1)C(=O)O	18%[10 µM]
CC(=O)OC[C@@]12[C@H](O)C[C@]3(C)C(=CCC4[C@@]5(C)CC[C@H](O[C@@H]6O[C@H](C(=O)O)[C@@H](O[C@@H]7O[C@H](CO)[C@@H](O)[C@H](O)[C@H]7O)[C@H](O)[C@H]6O[C@@H]6O[C@H](CO)[C@@H](O)[C@H](O)[C@H]6O)[C@](C)(CO)C5CC[C@]43C)[C@@H]1CC(C)(C)[C@@H](OC(C)=O)[C@@H]2O (some centres not stated)	?
CC1(CO)CC(O)C2(C)CCC3(C)C(=CCC4C5(C=O)CCC(OC6OC(C(=O)O)C(O)C(O)C6OC6OC(C(=O)O)C(O)C(O)C6O)C(C)(C)C5CCC43C)C2C1 (configuration not stated)	29%[5.1 µM]
O=C(O)c1cc(-c2ccccc2)nc2ccccc12	-7%

(list continues)
SMILES	nsP2pro primary
COc1cccc(Cc2nc3ccccc3nc2SCC(=O)N2CCCc3ccccc32)c1	-7%
COCCNS(=O)(=O)c1cc(-c2nn3c(C)nnc3c3ccccc23)ccc1C	-9%
c1nc(NCC2CCCCO2)c2cc(-c3ccc4c(c3)OCO4)ccc2n1 (configuration not stated)	i
CC(C)c1ccccc1SC1=NS(=O)(=O)c2ccccc21	0%
COCC1CN(C(=O)c2ccc(Br)cc2)CC12CCNCC2 (configuration not stated)	-4%
O=C(COc1ccccc1)N1CCc2nn(Cc3ccccc3)c(=O)n2CC1	i
O=C(COCc1cc(-c2ccc3c(c2)OCO3)on1)NCc1ccccc1Cl	-15%
N#Cc1cccc(-c2noc(-c3ccccc3F)n2)c1	?
O=C(/C=C/c1ccc(O)c(O)c1)OC[C@H]1O[C@@H](OC2CCCCC2O)[C@H](O)[C@@H](O)[C@@H]1O (some centres not stated)	54%[10 µM]
Oc1cc(NCc2ccccc2)cc2cccnc12	i
CC(NC(=O)c1nn(C)c2c1CSc1ccccc1-2)c1ccccc1 (configuration not stated)	-35%
O=c1cc(N2CCN(c3cccc(C(F)(F)F)c3)CC2)[nH]c(=O)n1C1CCCCC1	-15%

A draw from above in order of molecular weight, highest first.
SMILES	nsP2pro primary
COCCNS(=O)(=O)c1cc(-c2nn3c(C)nnc3c3ccccc23)ccc1C	-9%
CCc1ccc(NC(=O)C2CCC(CNS(=O)(=O)c3cccs3)CC2)cc1 (configuration not stated)	-23%
CCc1nn2c(=O)c(F)c(N3CCNCC3)nc2s1	-2%

More structures follow.
SMILES	nsP2pro primary
COC(=O)CC1CC2(C(=O)c3c(O)cccc3C2(O)C(=O)OC)C(C)O1 (configuration not stated)	-18%
C=C(C(=O)OC)C1C(O)CC2(C)C(=O)CCC(O)(CO)C2C1O (configuration not stated)	-6%
CCCn1c(-c2ccc(F)cc2)nc2c(NCCN(CC)CC)nc(C)nc21	i
CCCn1cnc2c1CN(S(=O)(=O)c1ccc(F)cc1)[C@H](C(=O)OC)C2	?
